D2 agonist = agonists of human D2 dopamine receptor (beta-arrestin); P14416; DiscoveRx PathHunter D2 beta-arrestin, luminescence, 90 min; 100% = 57 uM dopamine signal; activation, % (test concentration not listed); hit rate 0.084% among 360,000; AID 624465; in the data active = activation above about 40%; inconclusive = about 15% to 40%; inactive = below about 15%; note: compound concentration not given in the record; the text of the record calls up to 30% inactive
Target sequence (P14416 whole entry, looked up): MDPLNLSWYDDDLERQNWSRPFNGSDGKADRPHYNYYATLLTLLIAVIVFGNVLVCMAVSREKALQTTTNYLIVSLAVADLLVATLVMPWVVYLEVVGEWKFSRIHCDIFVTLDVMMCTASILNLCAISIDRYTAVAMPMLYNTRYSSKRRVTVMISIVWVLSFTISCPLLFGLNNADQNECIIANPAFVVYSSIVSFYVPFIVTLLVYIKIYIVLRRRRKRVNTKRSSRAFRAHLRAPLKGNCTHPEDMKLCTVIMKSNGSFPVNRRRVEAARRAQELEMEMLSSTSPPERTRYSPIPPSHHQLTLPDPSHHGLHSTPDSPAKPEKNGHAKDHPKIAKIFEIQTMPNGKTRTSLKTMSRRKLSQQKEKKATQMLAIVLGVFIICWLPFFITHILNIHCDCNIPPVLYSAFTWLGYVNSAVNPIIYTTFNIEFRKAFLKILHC
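Agonist mode: compounds alone added to overnight-plated D2 PathHunter cells for 90 min at 37 C, with 57 uM final dopamine (EC100) defining full response. Beta-arrestin recruitment detected by chemiluminescent reagent, read after 1 h at ambient temperature.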
PINK1 modulator = PINK1 expression modulation; PINK1 immunofluorescence, high-content cytometry, 24 h; Potency, µM (doses to about 76.6 µM), inactives show top-dose activation (PINK1 increase), hits mostly activators; hit rate 0.2% among 410,000; AID 624263; active = well fitted activation curve with a large enough effect; inconclusive = small, poorly fitted or top-dose-only effect; inactive = flat fitted curve, though single readings scatter; cell line not stated here;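 note: potency is the fitted concentration of half-maximal effect; % of control where 0% means no effect; nearly all actives have a fitted effect of over 65% in size; a mitochondrial uncoupler was the plate control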
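Stable cell line treated 24 h with compounds at 5 concentrations (CCCP controls), then fixed and immunostained for PINK1 plus nuclear and cell stains; PINK1 immunofluorescence quantified by laser-scanning microplate cytometry.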
ClpP mod = qHTS Assay for Activators of ClpP. purified B. subtilis ClpP, FRET peptide cleavage, 20 min. AID 651965, 2013. ATP-dependent Clp protease proteolytic subunit (Bacillus subtilis (strain 168)), P80244. Potency, µM (highest dose often 57.5 µM), for inactives: at the highest dose activity change, negative = active. hit rate 1.9% among 340,000; active = well fitted falling curve with a large enough effect; inconclusive = small, poorly fitted or top-dose-only effect; inactive = no such curve, though single readings can be large or run the other way; note: potency is the fitted concentration of half-maximal effect; the source files actives as falling curves though it sought activators and does not explain the sign; nearly all actives have a fitted effect of over 65% in size; many hits overshoot -100%
Target sequence (P80244 whole entry, looked up): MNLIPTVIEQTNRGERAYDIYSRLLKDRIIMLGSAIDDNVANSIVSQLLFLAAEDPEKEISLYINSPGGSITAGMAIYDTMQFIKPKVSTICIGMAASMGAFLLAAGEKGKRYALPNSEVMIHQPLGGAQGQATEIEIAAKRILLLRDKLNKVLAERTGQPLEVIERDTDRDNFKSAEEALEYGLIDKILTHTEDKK
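Purified B. subtilis ClpP, 10 microg/mL final in Tris/HCl pH8 with KCl, BSA, glycerol and Tween-20, cleaved an Abz/nitrotyrosine-quenched decapeptide. Fluorescence (ex 320, em 430) was read at 0 and 20 min at room temperature. Delta was normalized to 5.8 microM ADEP and DMSO/no-enzyme controls.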
Menin-MLL FL inh = menin-MLL binding inhibition, fluorescein peptide. 290,000 tested, under 10 active. FP activity change, % at 61.4 µM. Fluorescence polarization, fluorescein-MLL peptide displacement from menin. AID 1766; inconclusive = falling polarisation curve, or a change in total fluorescence; inactive = total fluorescence flat and polarisation flat or rising; no compound was filed as active; the % refers to the polarisation; negative = inhibition;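 note: % of control where 0% means no effect; inhibitors lower the polarisation; unlabelled MLL peptide was the positive control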
gsp agonist = gsp mutant agonism; gsp mutant cells, cAMP HTRF, 30 min; control for the full effect not named in the record; Potency, µM (series often up to 76.9 µM), for the others: at the top dose activation (cAMP increase), most hits filed as activators; hit rate 0.13% among 340,000; active = well fitted activation curve with a large enough effect; inconclusive = small, poorly fitted or top-dose-only effect, or another doubt; inactive = no such curve, though single readings can be large or run the other way; cell line not stated here;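 note: phosphodiesterase inhibitor Ro 20-1724 added with compounds to block cAMP breakdown; potency is the fitted concentration of half-maximal effect; nearly all actives have a fitted effect of over 60% in size; about a fifth of the inactives were tested at one dose only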
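Cells in DMEM/10% FBS with G418 were pretreated with compounds in DMSO plus […] (300 uM stock) for 30 min at 37C. cAMP was measured by HTRF (cAMP-d2 plus anti-cAMP antibody-K) after 30 min at room temperature.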
gsp antag = antagonists of gsp mutant (McCune-Albright syndrome) | gsp-mutant cells, cAMP HTRF, 30 min; control for the full effect not named in the record | Potency, µM (titrated, usually from 76.9 µM), for inactives: at the highest dose activity change, negative = inhibition, most hits filed as inhibitors | hit rate 0.4% among 340,000 | AID 624288; active = falling curve of any shape with a large fitted effect; inconclusive = falling curve, mostly with a smaller effect; inactive = flat or rising curve; cell line not stated here;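 note: intracellular cAMP measured with PDE inhibitor Ro 20-1724 present during compound exposure; potency is the fitted concentration of half-maximal effect; % is set by controls: 0 for no effect and ±100 for the full control effect; nearly all actives have a fitted effect of over 65% in size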
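HTRF cAMP read-out (cAMP-d2 plus anti-cAMP antibody-K in lysis buffer, 30 min RT). Before lysis, cells are exposed to compounds with […] for 30 min at 37C in DPBS containing Ca/Mg, BSA and Tween 20.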
Sfp PPTase inh = inhibitors of Bacillus subtilis Sfp phosphopantetheinyl transferase; hit rate 3.5% among 310,000; Potency, µM, for inactives: max response, negative = inhibition, most hits filed as inhibitors; Biochemical Sfp PPTase activity, qHTS; active = well fitted inhibition curve with a large enough effect; inconclusive = small, poorly fitted or top-dose-only effect, or another doubt; inactive = no such curve, though single readings can be large or run the other way;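 note: the enzyme is Sfp with the accession as filed and its product quenches rhodamine fluorescence; potency is the fitted concentration of half-maximal effect; 0% = enzyme reaction without inhibitor and -100% = no enzyme wells; top concentration of the series not given in the record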
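After 15 min at room temperature with compound, 15 nM Sfp received 5 uM rhodamine-CoA plus 12.5 uM BHQ-2-ybbR (50 mM Hepes pH 7.6, 10 mM MgCl2). Rate came from the fluorescence difference over 30 min, ex 525/em 598 nm.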
* = called active by the depositor; & = joins results of further samples; [ ] = dose if it differs, or a comment. Rows were taken by chance; overall some 5.1% were active at least once.

For CCCCn1c(N)c(N(CCOC)C(=O)COC(=O)Cc2cccc(OC)c2)c(=O)[nH]c1=O the results were D2 agonist 0.2, PINK1 modulator -1.9%, ClpP mod -1.3%, gsp agonist -4%[15.4 µM] and gsp antag 11%.
For CCN1CCN(c2nc3c(C)cccn3c(=O)c2/C=C(\C#N)S(=O)(=O)c2ccc(Cl)cc2)CC1 the results were D2 agonist -3.8, PINK1 modulator -1.1%, ClpP mod -12%, Menin-MLL FL inh -15, gsp agonist 11%, gsp antag -6% and Sfp PPTase inh -17%.
Nc1ccc2nc(-c3ccc(Cl)cc3)[nH]c2c1 was read as D2 agonist 12, PINK1 modulator -0.4%, ClpP mod 4.6%, Menin-MLL FL inh -3.6, gsp agonist inconclusive, gsp antag -7% and Sfp PPTase inh -19%.
Screening COc1ccc(CC(=O)NCC(=O)NCc2cc(=O)n(C)c(=O)n2C)cc1 returned D2 agonist -5.8, PINK1 modulator -0.4%, ClpP mod -0.8%, Menin-MLL FL inh -1.0, gsp agonist inconclusive, gsp antag 10% and Sfp PPTase inh 15%.
For CCNC(=O)COC(=O)c1cc(-c2ccccc2)nn1-c1ccccc1 the results were D2 agonist -1.5, PINK1 modulator 1.0%, Menin-MLL FL inh 3.7, gsp agonist 11%[15.4 µM] and Sfp PPTase inh -3%.
`O=C(CSc1nccc(-c2cccs2)n1)Nc1ccccc1` gave D2 agonist -3.2, PINK1 modulator 3.3%, ClpP mod -0.8%, Menin-MLL FL inh -1.2, gsp agonist 1%, gsp antag -6% and Sfp PPTase inh 20%.
Screening N#Cc1cc([N+](=O)[O-])ccc1NC(=O)COC(=O)C1CC2CCCC(C1)C2=O (centres undefined) returned D2 agonist 0.4, PINK1 modulator -1.0%, ClpP mod -3.7%, gsp agonist inconclusive and gsp antag 6%.
`Cc1ccc2nc(N(CCN(C)C)C(=O)c3cc(Cl)sc3Cl)sc2c1` gave D2 agonist -3.4, PINK1 modulator 22%, ClpP mod 2.1%, Menin-MLL FL inh -1.7, gsp agonist inconclusive, gsp antag 8% and Sfp PPTase inh 1%.
`O=C(NCCc1ccc(F)cc1)c1cc([N+](=O)[O-])ccc1N1CCOCC1` gave D2 agonist -2.1, PINK1 modulator 1.4%, ClpP mod -0.1%, gsp agonist -1% and gsp antag -5%.
For Cn1c(Cc2ccccc2)nnc1SCC(=O)N1CCCCC1 the results were D2 agonist -5.9, PINK1 modulator -1.5%, ClpP mod 1.3%, Menin-MLL FL inh 0.5, gsp agonist 0%, gsp antag 10% and Sfp PPTase inh 7%.
For CCCCCN(C(=O)CCC(=O)OCC(=O)N1CCCC(C)C1)c1c(N)n(CCCC)c(=O)[nH]c1=O (centres undefined) the results were D2 agonist -3.3, PINK1 modulator -0.5%, ClpP mod -2.8%, gsp agonist -46%[inhibitor], gsp antag 2% and Sfp PPTase inh 15%.
Screening NC(CSS(=O)(=O)O)=NCCC12CC3CC(CC(O)(C3)C1)C2 returned D2 agonist -3.0, PINK1 modulator 4.6%, ClpP mod -0.4%, Menin-MLL FL inh 3.8, gsp agonist -19%, gsp antag 1% and Sfp PPTase inh 50µM*.
CCc1ccc(N2CC(C(=O)NC3CC3)CC2=O)cc1 (centres undefined) was read as D2 agonist -1.0, PINK1 modulator 1.2%, ClpP mod 0.9%, gsp agonist 4%[15.4 µM], gsp antag 7% and Sfp PPTase inh -2%.
For Cc1cc(C(=O)Nc2nnc(C(F)(F)F)s2)cs1 the results were D2 agonist -3.5, PINK1 modulator 8.2%, Menin-MLL FL inh 1.9, gsp agonist 5%[15.4 µM], gsp antag -22% and Sfp PPTase inh 14%.
COc1ccc(C2=NN(C(=O)CCC(=O)O)C(c3ccccc3)C2)cc1 (centres undefined) was read as D2 agonist 1.3, PINK1 modulator -1.1%, ClpP mod -1.7%, Menin-MLL FL inh -4.6, gsp agonist 23%, gsp antag -10% and Sfp PPTase inh 22%.
For CC(=O)Nc1nnc(SCC(=O)N2CCc3ccccc32)s1 the results were D2 agonist -1.1, PINK1 modulator 11%, Menin-MLL FL inh 0.2, gsp agonist -11%, gsp antag 3% and Sfp PPTase inh 7%.
Cn1c(=O)c2c(nc(N3CCOCC3)n2CCNC2=NCCC2)n(C)c1=O was read as D2 agonist 1.5, PINK1 modulator -3.1%, ClpP mod -0.6%, gsp agonist inconclusive and gsp antag -16%.
Screening Cc1cc(C)c(NC(=O)CSc2nncn2-c2cccnc2)c(C)c1 returned D2 agonist -2.1, PINK1 modulator 0.8%, Menin-MLL FL inh -2.0, gsp agonist 3%[15.4 µM], gsp antag 8% and Sfp PPTase inh 15%.
Screening CCOC(=O)CNc1c(-c2ccc(O)cc2)nc2ccccn12 returned D2 agonist 4.2, PINK1 modulator 2.5%[38.3 µM], ClpP mod 32µM*, Menin-MLL FL inh 0.4, gsp agonist 2%, gsp antag -23% and Sfp PPTase inh -9%.
CCCn1nc(Oc2nc(NCC)nc(NCC)n2)ccc1=O was read as D2 agonist -4.4, PINK1 modulator 8.2%, ClpP mod 0.3%, Menin-MLL FL inh 0.3, gsp agonist 18%, gsp antag 5% and Sfp PPTase inh 13%.
Screening CCOc1cc(C2NC(=O)NC2=O)ccc1O (centres undefined) returned D2 agonist -16, PINK1 modulator -1.4%, ClpP mod -4.0%, Menin-MLL FL inh 3.7, gsp agonist -6%[15.4 µM], gsp antag 6% and Sfp PPTase inh 14%.
COCc1c(Br)c(C)nc(OCC(=O)O)c1C#N was read as D2 agonist -5.2, PINK1 modulator 0.1%, ClpP mod 0.1%, Menin-MLL FL inh 0.3, gsp agonist -2%, gsp antag 2% and Sfp PPTase inh 22%.
O=C1NC(c2ccccc2)(C(F)(F)F)SC2=CCCCCN12 (centres undefined) was read as D2 agonist -5.1, PINK1 modulator 2.2%, ClpP mod 0.3%, Menin-MLL FL inh -3.4, gsp agonist -81%[inhibitor], gsp antag 4% and Sfp PPTase inh 20µM*.
COc1ccc(NC(=O)c2cc(Br)c(Br)s2)cn1 was read as D2 agonist -0.9, PINK1 modulator 6.3%, Menin-MLL FL inh -9.9, gsp agonist 0%[15.4 µM], gsp antag -22% and Sfp PPTase inh 11%.
COc1ccc(S(=O)(=O)N2CCc3ccccc3C2)cc1 was read as D2 agonist 3.1, PINK1 modulator -0.7%, Menin-MLL FL inh -4.1, gsp agonist 26%, gsp antag -5% and Sfp PPTase inh -6%.
CC(=O)NC1C(OCc2ccccc2)OC2COC(C)(C)OC2C1O (centres undefined) was read as D2 agonist -2.5, PINK1 modulator -1.1%, Menin-MLL FL inh -0.5, gsp agonist 11%[15.4 µM], gsp antag 7% and Sfp PPTase inh 16%.
For Cc1ccc(C(=O)N/C(=C/c2ccco2)C(=O)NCc2ccco2)cc1 the results were D2 agonist -2.2, PINK1 modulator 3.3%, Menin-MLL FL inh 8.8, gsp agonist -3%[15.4 µM], gsp antag 8% and Sfp PPTase inh -27%.
`COc1ccccc1N1C(=O)C2C(C(=O)c3ccccc3)=NN(c3ccccc3OC)C2C1=O` (centres undefined) gave D2 agonist -3.7, PINK1 modulator -0.5%, ClpP mod -1.4%, Menin-MLL FL inh inconclusive, gsp agonist -1%[15.4 µM], gsp antag -6% and Sfp PPTase inh -5%.
For COc1ccc(S(=O)(=O)N2CCOCC2)cc1NC(=O)C1COc2ccccc2O1 (centres undefined) the results were D2 agonist inconclusive, PINK1 modulator 1.8%, gsp agonist -11%[15.4 µM] and gsp antag 10%.
For O=C(COc1ccc(F)cc1)N1CCc2ccccc2C1 the results were D2 agonist 3.3, PINK1 modulator 2.2%, ClpP mod -0.8%, Menin-MLL FL inh 1.2, gsp agonist -2%[15.4 µM], gsp antag -1% and Sfp PPTase inh -9%.
Screening CCn1c(SCC(=O)NC(C)(C)C)nnc1-c1ccncc1 returned D2 agonist 2.4, PINK1 modulator 1.7%, ClpP mod -0.2%, Menin-MLL FL inh -3.5, gsp agonist 9%, gsp antag 8% and Sfp PPTase inh 15%.
For CCCCc1c(C)nc2c(OC)cccc2c1SCC(=O)O the results were D2 agonist 0.2, PINK1 modulator -1.8%, ClpP mod -23%, Menin-MLL FL inh -1.5, gsp agonist inconclusive, gsp antag 1% and Sfp PPTase inh -26%.
CCOc1ccc(CN2CCNC(=O)C2CC(=O)NCC2CCOCC2)cc1 (centres undefined) was read as D2 agonist -1.2, PINK1 modulator 0.9%, ClpP mod -4.5%, gsp agonist inconclusive, gsp antag 7% and Sfp PPTase inh 6%.
`COCCN(C(=O)CCC(=O)Nc1ccccn1)C(C(=O)NC(C)C)c1ccc(Cl)cc1` (centres undefined) gave D2 agonist -2.3, PINK1 modulator -0.5%, Menin-MLL FL inh 3.1, gsp agonist -25%, gsp antag -1% and Sfp PPTase inh 22%.
COc1ccc(NC(=O)C(c2ccc(OC)cc2)N(C)C(=O)Cc2cccs2)cc1 (centres undefined) was read as D2 agonist 3.3, PINK1 modulator -1.1%&2.7%, ClpP mod -18%&-1.8%, Menin-MLL FL inh 11, gsp agonist -42%[inhibitor], gsp antag 7% and Sfp PPTase inh 23%.
`CCOC(=O)N1CCN(C(=O)c2cc(Cl)c(Cl)cc2C(=O)O)CC1` gave D2 agonist -2.5, PINK1 modulator 1.7%[38.3 µM], ClpP mod -1.7%, Menin-MLL FL inh 3.7, gsp agonist 4%, gsp antag -1% and Sfp PPTase inh 14%.
For CC(C)c1ccc(-c2nc3ccccc3s2)cc1 the results were D2 agonist -3.2, PINK1 modulator inconclusive, Menin-MLL FL inh 1.1, gsp agonist 16%[15.4 µM], gsp antag -3% and Sfp PPTase inh 6%.
`O=C(NCc1ccc2c(c1)OCO2)C1CCC(=O)N1C1CCCC1` (centres undefined) gave D2 agonist -2.2, PINK1 modulator 0.3%, ClpP mod -0.6%, Menin-MLL FL inh -2.5, gsp agonist 13%[15.4 µM], gsp antag 7% and Sfp PPTase inh 1%.
For Cc1nnc(NC(=O)CSCc2ccccc2)s1 the results were D2 agonist -5.3, PINK1 modulator 2.7%, ClpP mod -2.0%, Menin-MLL FL inh -4.2, gsp agonist -34%[inhibitor], gsp antag -1% and Sfp PPTase inh 4%.

Screening results (PubChem BioAssay)
